Beta apoptosis: beta cell apoptosis inhibition; INS-1E cytokine-induced death, ATP luminescence, 48 h; percent of positive-control rescue, neutral wells zero; protection from apoptosis, % (test concentration not listed); 0.8% of 300,000 active;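 active = all replicates at 75% or more, or half of them and the mean; inconclusive = half reach 75% but not the mean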;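 also: 0% = cytokine-treated negative control wells and 100% = positive control rescue; higher means more ATP so stronger rescue from cytokine killing; wells of about 40 µL received 100 nL stock; the first replicate is given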
MLL AF4-AF9 inh: inhibitors of human MLL-AF4/AF9 interaction; AlphaScreen, biotin-AF4 peptide binding to FLAG-AF9; inhibition, % at 10 µM; 0.47% of 350,000 active; P42568;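 active = every replicate reaching a set inhibition limit, whatever the replicate mean, cut at about 25% in these data; inconclusive = mean inhibition reaches that limit but some replicates miss it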;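 also: 0% = plate neutral control median and 100% = total signal loss; the record names both 10 and 1 µM as test concentration; the first replicate is given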
Vif TR-FRET: inhibitors of Vif binding to APOBEC3G peptide, primary screen, biochemical, TR-FRET, GST-Vif 1-94, biotin-A3G peptide, dose response retest (AID 1117319); one-dose inhibition, %; IC50 in µM for titrated hits; TR-FRET GST-Vif / biotin-A3G peptide binding; higher % means a stronger effect; test concentration not given here; strong numbers were not always called active; 0.57% of 260,000 active;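 active = above the screen mean plus three standard deviations and confirmed in dose response; inconclusive = results disagree or hit not tested in dose response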;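 also: Vif residues 1-94 fused to GST binding biotinylated APOBEC3G peptide 110-148; 0% = full assay without inhibitor and 100% = GST in place of GST-Vif; retest series ran down from 100 µM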
Bfl-1 A1 inh: inhibitors of the anti-apoptotic protein A1, read as caspase activation; 0.066% of 330,000 active; MEF A1-2A-BIM cells, Caspase-Glo 3/7 luminescence, 3 h; percent of clofoctol response, vehicle zero; caspase activation, % (concentration not given with the values); AID 2462;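 active = over half of replicate activation scores above 10%, or exactly half above 10 with the replicate mean above 10; inconclusive = replicate mean below 10 yet half the replicates above 10; inactive = over half of replicates below 10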;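 also: wells of about 30 µL received 50 nL stock; many hits fall short of the cut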
RanGTP-Imp inh: disruptors of Ran-importin-beta complex formation – biochemical, FRET, CFP-Ran, YFP-importin-beta, homogeneous, primary screen | cell-free CFP-Ran/YFP-importin-beta FRET ratio | inhibition, % (no concentration beside the values) | 1.1% of 300,000 active | AID 2216;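 active = most replicates above 15%; inconclusive = exactly half above 15%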;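 also: 0% = DMSO wells and 100% = Ran loaded with GDP instead of GTP; wells of about 40 µL received 100 nL stock; the first replicate is given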
LANA-H2A inh: blocks KSHV LANA binding to histone H2A/H2B. cell-free LANA-H2A/H2B peptide, fluorescence polarization. inhibition, % (no concentration beside the values). 0.6% of 320,000 active. Q9QR71; in the data active = inhibition mostly above about 10%, no sharp cut-off; inactive = mostly below about 6.7%;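 also: stock transfer was 7.5 nL into about 10 µL; 0% = median of vehicle wells and 100% = median of positive control wells; one replicate is shown; the record names a cut of 25% in any replicate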
Target sequence (Q9QR71 whole entry, looked up): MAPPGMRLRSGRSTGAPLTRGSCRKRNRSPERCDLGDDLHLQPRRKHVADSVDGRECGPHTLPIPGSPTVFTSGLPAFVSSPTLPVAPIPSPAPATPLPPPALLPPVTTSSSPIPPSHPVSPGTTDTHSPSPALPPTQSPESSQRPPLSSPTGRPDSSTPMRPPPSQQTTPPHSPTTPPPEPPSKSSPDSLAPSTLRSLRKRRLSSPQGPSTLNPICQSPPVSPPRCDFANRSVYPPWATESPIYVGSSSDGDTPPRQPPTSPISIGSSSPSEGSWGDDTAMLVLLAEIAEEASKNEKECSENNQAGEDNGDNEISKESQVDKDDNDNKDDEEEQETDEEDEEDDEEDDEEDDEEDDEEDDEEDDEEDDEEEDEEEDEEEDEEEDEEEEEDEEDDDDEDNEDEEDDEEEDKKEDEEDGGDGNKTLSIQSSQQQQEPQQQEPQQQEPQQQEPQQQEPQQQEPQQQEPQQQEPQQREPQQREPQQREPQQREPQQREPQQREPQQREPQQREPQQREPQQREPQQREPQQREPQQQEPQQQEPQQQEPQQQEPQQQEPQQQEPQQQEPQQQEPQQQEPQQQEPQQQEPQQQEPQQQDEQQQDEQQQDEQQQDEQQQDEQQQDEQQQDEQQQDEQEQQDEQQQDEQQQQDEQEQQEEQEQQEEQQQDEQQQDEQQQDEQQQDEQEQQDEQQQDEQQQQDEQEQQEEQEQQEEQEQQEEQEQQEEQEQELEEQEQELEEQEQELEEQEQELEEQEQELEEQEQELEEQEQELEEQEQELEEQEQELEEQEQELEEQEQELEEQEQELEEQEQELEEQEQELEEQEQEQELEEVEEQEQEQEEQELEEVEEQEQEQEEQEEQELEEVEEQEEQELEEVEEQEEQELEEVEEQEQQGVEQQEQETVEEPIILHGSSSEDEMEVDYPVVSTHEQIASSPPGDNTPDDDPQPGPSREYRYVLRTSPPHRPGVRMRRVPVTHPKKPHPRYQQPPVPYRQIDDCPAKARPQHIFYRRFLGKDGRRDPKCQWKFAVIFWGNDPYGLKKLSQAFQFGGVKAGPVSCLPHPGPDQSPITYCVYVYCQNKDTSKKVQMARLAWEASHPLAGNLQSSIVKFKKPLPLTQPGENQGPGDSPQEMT
T cruzi inh: blocks replication of Trypanosoma cruzi; T. cruzi beta-gal in NIH3T3, luminescence, 90 h; inhibition, % (test concentration not listed); 1.4% of 300,000 active;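 active = mean inhibition across valid replicates above about 55%, limit read from the data; inconclusive = mean below that limit but half or more replicates reach it; inactive = mean below it, under half of replicates reach it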;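 also: signal also drops with host cell toxicity which is not excluded here; 0% = plate median of DMSO wells and 100% = zero luminescence signal; higher percent means less beta-gal luminescence so fewer parasites; stock transfer was 50 nL into about 50 µL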
Calb FLC: C. albicans growth modulation with fluconazole; C. albicans CaCi-2 (fluconazole-resistant clinical isolate) + fluconazole, Alamar Blue growth, 48 h; 0.57% of 300,000 active; growth inhibition, % (test concentration not listed);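 active = most replicates above 75%; inconclusive = exactly half above 75%; inactive = most below 75%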;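 also: all wells also contain fluconazole at 8 µg/ml as a sub-toxic cotreatment; 0% = median of DMSO wells and 100% = median of geldanamycin control wells; wells of about 8 µL received 7.5 nL stock; the first replicate is given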
Numbers without * were called inactive; ? = inconclusive; nt = not tested or not shown; & = joins results of further samples.

SMILES	Beta apoptosis	MLL AF4-AF9 inh	Vif TR-FRET	Bfl-1 A1 inh	RanGTP-Imp inh	LANA-H2A inh	T cruzi inh	Calb FLC
CCOc1ccc(NC(=O)C(Cc2ccccc2)N2C(=O)c3cccc4cccc(c34)C2=O)cc1 (stereo not given)	12.9	-0.3	29.1%	0.8	10.5	-0.9	-13.5	16.9
CCC(=O)N1CCc2cc(S(=O)(=O)Nc3ccc4c(c3)OCCO4)ccc21	52.1	nt	32.4%	0.1	1.9	-2.2	-2.1	-0.4
Cn1cc(C(=O)Nc2ccc3c(c2)CCC3)cn1	-5.2	nt	-3.0%	0.8	-1.5	3.8	-14.8	-5.8
c1ccc2cc3[nH]c(CN4CCOCC4)nc3cc2c1	-0.2	nt	-12.5%	1.0	0.4	3.8	-6.0	-1.8
C=CCOc1ccccc1CN1CCCC(CCC(=O)N(C)CCc2ccccn2)C1 (stereo not given)	nt	-2.5	-0.4%	-0.4	0.0	2.3	56.4*	-17.2
COc1ccc(C(C)=O)cc1COC(=O)CCCN1C(=O)c2ccccc2C1=O	-2.3	-0.6	2.3%	0.7	1.4	0.5	-2.8	-12.5
COC(=O)c1ccc(C2Nc3ccc(/C(C)=N/NC(=O)C(OC)c4ccccc4)cc3C3C=CCC32)cc1 (stereo not given)	-0.7	nt	11.3%	1.0	-3.6	1.6	1.8	5.7
CC1=Nc2ccc(C)cc2/C1=C/c1c(N)n2oc(C)cc2nc1=O	1.4&-1.5	-1.0&-0.1	-49.9%&2.2%	1.0&0.4	-83.5&-55.7	-8.2&0.0	13.5&11.1	?
COc1ccc([N+](=O)[O-])cc1NC(=O)C(C)Sc1nc(-c2ccccc2)cs1 (stereo not given)	13.8	-1.1	nt	-0.8	3.5	-1.4	15.9	-1.8
CCc1noc(C)c1C(=O)OCC(=O)c1ccc(OC)c(OC)c1	-3.9	-0.6	19.5%	-0.2	nt	8.5	nt	nt
O=C1c2ccccc2C(=O)C12Cc1ccccc1N1CCN(c3ccccc3)CC12 (stereo not given)	nt	nt	2.3%&12.4%	nt	-4.7	nt	46.0	-7.7
CCNC(=O)c1cc(S(=O)(=O)N(C)C)c(Cl)cc1Cl	-0.9	-0.9	1.0%	-0.1	1.2	-3.6	-2.0	-9.1
N#Cc1cc2cc3c(cc2nc1SCC(=O)N1CCCC1)OCCO3	-8.9	nt	nt	-0.4	-3.5	0.6	0.8	10.1
Cc1cnc(C(=O)OC(C)C(=O)NCc2ccccc2)cn1 (stereo not given)	-1.1	-0.1	-1.6%	1.2	-2.8	3.8	3.2	nt
CCOC(=O)[C@H]1[C@H]2COc3ccc(Br)cc3[C@@H]2N2C(=O)CN(CC3CCCO3)C(=O)[C@@]12C (stereo not given in full)	-5.4	-2.5	nt	0.3	nt	0.2	nt	nt
COc1ccc2nc(SCC(=O)NN)cc(C)c2c1	4.5	nt	85.6%	2.4	-2.5	-1.9	-16.6	0.0
CCOC(=O)c1nn(-c2ccc(F)cc2)c(=O)c2c(N)scc12	-1.3	-5.0	16.0%	-0.4	-1.5	0.9	-14.6	-0.4
O=C(Cn1cnc2cc([N+](=O)[O-])ccc2c1=O)Nc1cccc(S(=O)(=O)N2CCOCC2)c1	5.7	2.8	5.9%	-0.9	-4.0	-2.5	44.7	20.8
CCOC(=O)c1cnc2c(-c3ccccc3)c(C)nn2c1N	-2.6	nt	3.1%	-0.7	3.8	3.5	6.5	38.0
COCCNC(=O)c1c(N)sc2c1CCCC2	-2.3	nt	-0.1%	-1.5	-5.2	2.7	1.5	11.2
OCC1(Cc2cccc(C(F)(F)F)c2)CCN(Cc2cc3ccccc3o2)CC1	1.9	2.5	0.0%	0.4	-7.4	0.0	26.0	?
CCOC(=O)C1(CCOc2ccccc2)CCN(Cc2cccc(OC)c2O)CC1	-0.1	-4.0	1.7%	0.6	3.4	-6.5	14.9	-15.9
COc1ccc(S(=O)(=O)Cc2ccccc2)cc1N	0.4	nt	-4.7%	0.9	?	-7.5	3.3	-22.6
COc1ccc(Cn2nnnc2CN(CCCN2CCOCC2)Cc2cc3cc(OC)ccc3[nH]c2=O)cc1	-0.8	-5.6	3.3%	0.5	0.7	nt	3.8	-17.3
CCOCCCNCc1cc(Cl)cc(Cl)c1OCC	0.6	4.3	nt	-0.5	-2.2	1.4	4.9	-3.2
O=C(Cn1ncc2c(=O)oc3ccccc3c21)N1CCN(c2ccccn2)CC1	-1.2	nt	?	0.3	1.0	-1.1	-12.8	6.3
CC(C)Cc1nnc(NC(=O)c2cccc(S(=O)(=O)N3CCN(C)CC3)c2)s1	4.3	-0.9	3.2%	0.4	0.4	-3.4	60.5*	-3.5
CCO[C@H]1OC(C(=O)N2CCCCCCC2)=C[C@@H](c2csc3ccccc23)[C@@H]1CCCO	-1.5	nt	-7.5%	0.4	3.6	0.3	-6.7	4.9
COCCNC(=O)COC(=O)C1=Cc2ccccc2OC1	-7.8	-1.1	-4.8%	-2.2	nt	0.1	-5.1	3.9
COc1ccccc1C(=O)Nc1ccc(C)cc1C(=O)c1ccccc1	-0.6	6.1	10.0%	-0.7	0.5	-1.7	23.8	10.0
O=c1c2ccccc2c(-c2ccccc2)nn1Cc1ccccc1	-11.9	nt	-19.0%	0.3	1.2	-0.9	26.8	-3.6
CCOCCCNC(=O)C1CCN(S(=O)(=O)c2ccc(C)cc2)CC1	-5.2	nt	1.8%	0.1	1.3	1.7	3.1	16.7
Cc1cc(C)c(C(=O)CSc2nnc(C)s2)c(C)c1	-0.4	-0.6	-3.2%	-0.8	-2.9	-0.9	-1.5	-15.6
CN(C)C(=O)N1CCC(C(=O)NCc2ccc(F)cc2Cl)CC1	-3.3	nt	0.9%	-0.5	-5.0	7.2	-14.5	-9.6
Cc1cc(S(=O)(=O)Nc2ccc3c(c2)n(C)c(=O)n3C)ccc1F	1.4	-1.1	5.0%	0.5	1.9	2.2	2.9	5.5
O=C(OC1CCOC1=O)c1cccc(S(=O)(=O)Nc2cccc(Cl)c2)c1 (stereo not given)	nt	nt	nt	0.2	7.8	-0.9	-6.0	10.0
CCNC(=O)C(C)NC(=O)C1=NN(c2ccccc2)C(=O)CC1 (stereo not given)	2.7	-0.4	nt	-0.7	4.2	-8.1	1.6	-0.2
Clc1ccc(-c2ccc(CNCC3CCCO3)o2)cc1 (stereo not given)	nt	7.0	3.2%	1.1	-3.4	2.0	11.9	-13.7
CCOc1ccccc1N(C(=O)c1snc(C(N)=O)c1N)C(CC)C(=O)NC1CCCC1 (stereo not given)	-0.2	-8.2	nt	1.0	-1.0	-10.3	12.2	-3.3
O=C(CSc1ncnc2c1cnn2-c1ccccc1Cl)N1CCN(C(=O)c2ccco2)CC1	-4.5	nt	-3.4%	-0.8	-1.4	2.1	-2.7	0.4
CN(CC(=O)Nc1ccccc1Cl)C(=O)COC(=O)c1nc(Cl)c(Cl)c(Cl)c1Cl	-0.4	-0.1	0.9%	0.7	-8.0	-13.7	?	5.3
COc1ccc(Cl)cc1NC(=O)Cn1c(C)csc1=O	-4.3	0.5	nt	0.9	nt	1.9	nt	nt
CCN1CCN(Cc2cc(=O)oc3cc(C)cc(C)c23)CC1	-3.7	nt	8.4%	0.5	-2.2	1.9	21.3	-4.1
N#Cc1cnn(Cc2ccccc2)c1N	-6.0	nt	2.2%	-0.8	-1.6	-0.1	12.4	-15.9
CSc1ccccc1C(=O)NCCc1ccc(S(=O)(=O)N2CCCCC2)cc1	-1.3	7.5	0.5%	0.5	?	-1.9	9.3	-18.9
COc1cccc(/C=C2\Sc3ccc(C(=O)NCC4CCCO4)cc3N(C)C2=O)c1 (stereo not given)	nt	9.0	nt	-0.3	1.2	-1.8	9.3	15.1
C/C=C/C1=CC(=O)C[C@H](c2ccc(F)cc2)C1	-11.0	3.0	nt	-0.4	nt	6.8	nt	nt
Cc1ccc(NC(=O)COC(=O)CNC(=O)c2ccco2)cc1	-5.5	-0.7	-1.9%	0.7	?	1.4	0.5	-17.4

Entries of single compounds, quoted from the list. Screens in order: Beta apoptosis | MLL AF4-AF9 inh | Vif TR-FRET | Bfl-1 A1 inh | RanGTP-Imp inh | LANA-H2A inh | T cruzi inh | Calb FLC
`CCOc1ccccc1N(C(=O)c1snc(C(N)=O)c1N)C(CC)C(=O)NC1CCCC1` (stereo not given) is entered as -0.2 | -8.2 | nt | 1.0 | -1.0 | -10.3 | 12.2 | -3.3
`COc1cccc(/C=C2\Sc3ccc(C(=O)NCC4CCCO4)cc3N(C)C2=O)c1` (stereo not given) is entered as nt | 9.0 | nt | -0.3 | 1.2 | -1.8 | 9.3 | 15.1

Next results:
SMILES	Beta apoptosis	MLL AF4-AF9 inh	Vif TR-FRET	Bfl-1 A1 inh	RanGTP-Imp inh	LANA-H2A inh	T cruzi inh	Calb FLC
CN1CCc2nc(NC(=O)COc3ccc(C#N)cc3)sc2C1	-2.0	-0.2	-41.4%	0.0	22.9*	0.2	-12.9	-6.3
CCC(=O)NNc1nc2c(F)cc(F)cc2s1	-1.7	-6.2	nt	1.2	?	4.3	-10.1	5.5
NCCCCCc1nnc(SCc2ccccc2Cl)o1	-1.4	nt	7.8%	-0.1	-3.3	-3.5	8.5	-4.7
N#CCCN(C(=O)COC(=O)CCc1c[nH]c2ccccc12)c1ccc(F)cc1	8.8	-0.7	2.5%	-0.6	-2.9	nt	-2.6	5.7
NCCCSC1=NCCCN1	2.7	nt	65.2%	-0.6	2.4	3.4	-8.8	-4.5
Cc1nn(CC(=O)NCC(C)c2ccccc2)c(=O)c2cccn12 (stereo not given)	0.3	-1.5	-1.8%	0.1	-1.3	-7.3	-8.0	27.2
CCCCN(C(=O)C(C)Oc1ccc(Cl)cc1)c1c(N)n(CCCC)c(=O)[nH]c1=O (stereo not given)	-2.0	-5.8	nt	0.0	-2.8	-3.5	-12.9	-0.5
CN(Cc1ccccc1)C(=O)c1nc[nH]c1C(=O)N(C)Cc1ccccc1	-4.2	-0.6	nt	1.0	nt	-2.8	nt	nt

Reprinted at random: four entries already listed, in no set order.
SMILES	Beta apoptosis	MLL AF4-AF9 inh	Vif TR-FRET	Bfl-1 A1 inh	RanGTP-Imp inh	LANA-H2A inh	T cruzi inh	Calb FLC
CCc1noc(C)c1C(=O)OCC(=O)c1ccc(OC)c(OC)c1	-3.9	-0.6	19.5%	-0.2	nt	8.5	nt	nt
Clc1ccc(-c2ccc(CNCC3CCCO3)o2)cc1 (stereo not given)	nt	7.0	3.2%	1.1	-3.4	2.0	11.9	-13.7
Cc1cc(S(=O)(=O)Nc2ccc3c(c2)n(C)c(=O)n3C)ccc1F	1.4	-1.1	5.0%	0.5	1.9	2.2	2.9	5.5
C/C=C/C1=CC(=O)C[C@H](c2ccc(F)cc2)C1	-11.0	3.0	nt	-0.4	nt	6.8	nt	nt
